T cruzi repl – inhibitors of intracellular T. cruzi growth, primary screen, luminescence, NIH3T3 host cells | T. cruzi beta-gal in NIH3T3, 90 h | inhibition, % (no concentration beside the values) | actives 1.4% (n = 300,000) | AID 1885, 2009;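 active = mean inhibition across valid replicates above about 55%, limit read from the data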;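 note: signal also drops with host cell toxicity which is not excluded here; 0% = plate median of DMSO wells and 100% = zero luminescence signal; higher percent means less beta-gal luminescence so fewer parasites; stock transfer was 50 nL into about 50 µL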
B2AR ag – beta2AR agonists driving receptor internalization, primary screen, cell-based, FAP fluorogen, flow cytometry; Am2.2-beta2AR cells; reference of the scale not given here; response, % (no concentration beside the values); actives 0.43% (n = 340,000); AID 504454, 2011;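 active = response above a set limit, near 3 SD of response in nonfluorescent compounds, cut at about 42% in these data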;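 note: stock transfer was 100 nL into about 11 µL; a reference agonist was the positive control; negative values mostly stem from fluorescent compounds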
Target sequence (P07550 whole entry, looked up): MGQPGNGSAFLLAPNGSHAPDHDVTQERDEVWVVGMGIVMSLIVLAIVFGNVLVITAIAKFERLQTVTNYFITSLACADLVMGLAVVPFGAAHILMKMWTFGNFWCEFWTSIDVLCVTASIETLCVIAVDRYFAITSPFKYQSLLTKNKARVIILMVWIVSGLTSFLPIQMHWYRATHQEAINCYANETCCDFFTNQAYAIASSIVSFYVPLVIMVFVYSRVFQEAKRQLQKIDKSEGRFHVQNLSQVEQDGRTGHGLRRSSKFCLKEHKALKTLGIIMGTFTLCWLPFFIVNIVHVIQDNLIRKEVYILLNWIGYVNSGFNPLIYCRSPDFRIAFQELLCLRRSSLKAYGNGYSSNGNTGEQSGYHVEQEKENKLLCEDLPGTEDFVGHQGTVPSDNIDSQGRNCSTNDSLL
Calb FLC – C. albicans growth inhibition with fluconazole, primary screen, CaCi-2 strain, Alamar Blue fluorescence. C. albicans CaCi-2 (fluconazole-resistant clinical isolate) + fluconazole, 48 h. growth inhibition, % (concentration not given with the values). actives 0.57% (n = 300,000). AID 1979, 2009;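 active = most replicates above 75%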;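 note: all wells also contain fluconazole at 8 µg/ml as a sub-toxic cotreatment; 0% = median of DMSO wells and 100% = median of geldanamycin control wells; wells of about 8 µL received 7.5 nL stock; the first replicate is given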
Bfl-1 A1 inh – caspase 3/7 activation in MEF A1-2A-BIM cells, primary screen, A1 inhibitor project, cell-based, luminescence, HTS; Caspase-Glo 3/7 luminescence, 3 h; percent of clofoctol response, vehicle zero; caspase activation, % (test concentration not listed); actives 0.066% (n = 330,000); AID 2462, 2010;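 active = over half of replicate activation scores above 10%, or exactly half above 10 with the replicate mean above 10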;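 note: wells of about 30 µL received 50 nL stock; many hits fall short of the cut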
Beta cell apopt – inhibitors of cytokine-induced beta cell apoptosis, primary screen, luminescence; actives 0.8% (n = 300,000); protection from apoptosis, % (test concentration not listed); INS-1E cytokine-induced death, ATP luminescence, 48 h; percent of positive-control rescue, neutral wells zero; AID 435005, 2010;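 active = all replicates at 75% or more, or half of them and the mean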;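 note: 0% = cytokine-treated negative control wells and 100% = positive control rescue; higher means more ATP so stronger rescue from cytokine killing; wells of about 40 µL received 100 nL stock; the first replicate is given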
LANA-H2A inh – blockers of LANA interaction with H2A/H2B – biochemical, FP readout, HTS, primary screen; Protein LANA1 (Human herpesvirus 8 type P (isolate GK18)), Q9QR71; cell-free LANA-H2A/H2B peptide, fluorescence polarization; inhibition, % (no concentration beside the values); actives 0.6% (n = 320,000); in the data active = inhibition mostly above about 10%, no sharp cut-off; inactive = mostly below about 6.7%;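 note: stock transfer was 7.5 nL into about 10 µL; 0% = median of vehicle wells and 100% = median of positive control wells; one replicate is shown; the record names a cut of 25% in any replicate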
ALR H2O2 inh – inhibitors of human ALR sulfhydryl oxidase, primary screen, biochemical, H2O2 detection, HRP-luminol luminescence, single point | FAD-linked sulfhydryl oxidase ALR (Homo sapiens), P55789 | actives 3.8% (n = 290,000) | AID 485317, 2010 | purified ALR, DTT oxidation | inhibition, % (no concentration beside the values);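 active = mean and each replicate at 75% or more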;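 note: stock transfer was 7.5 nL into about 7.5 µL; 0% = neutral wells and 100% = wells with inactivated enzyme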
Target sequence (P55789 whole entry, looked up): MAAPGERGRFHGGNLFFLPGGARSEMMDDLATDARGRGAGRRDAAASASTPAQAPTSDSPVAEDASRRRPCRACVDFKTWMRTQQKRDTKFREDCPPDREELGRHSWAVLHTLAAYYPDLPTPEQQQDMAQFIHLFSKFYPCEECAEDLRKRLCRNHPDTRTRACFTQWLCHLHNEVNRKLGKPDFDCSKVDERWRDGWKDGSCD
rRNA inh HTS – reduced GFP signal of wild-type E. coli, primary screen, bacterial rRNA inhibitor project, GFP/RFP fluorescence, OD600, single point; E. coli WT GFP vs humanized-ribosome RFP mutants, 24 h; hits give low values; DMSO median 0, no signal -100; actives 1.6% (n = 350,000); AID 720706, 2013; GFP signal change (wild-type ribosome), % (no concentration beside the values);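 active = significant combined selectivity score with lowered wild-type GFP, culture density cut under 30%, mutant RFP and density less affected; inactive = any of these conditions unmet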; note: one replicate is shown; some compounds called inactive have numbers as strong as hits
rRNA inh HTS OD600 – second read-out of rRNA inh HTS, no call of its own (marks repeat the call); OD600 change, %; measured here: OD600 growth;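 optical density of the mix in the first replicate; 0 = DMSO median and -100 = no signal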
rRNA inh HTS RFP – also measured in rRNA inh HTS; calls as there; RFP signal change, %; measured here: RFP humanized mutant strains;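 first replicate; 0 = DMSO median and -100 = no signal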
* marks the source's active call; other numbers are inactive results; nt = no result given. A portion of the library; the hit share may differ from the screen's.

#	smiles	T cruzi repl	B2AR ag	Calb FLC	Bfl-1 A1 inh	Beta cell apopt
1	Cc1nc(N=C(N)N)nc2c(C)cccc12	56*	-14	-23	0.6	5
2	O=c1nccc(N/N=C/c2cccc(O)c2)[nH]1	-16	6	-9	-4.9	5
3	O=C(CSc1ncnc2c1cnn2-c1ccc(F)cc1)NCc1ccc2c(c1)OCO2	6	0	1	-0.3	-5
4	CCOC(=O)C(C)(C)n1nnc(-c2ccc([N+](=O)[O-])cc2)n1	4	4	0	0.8	-7
5	CN(C)C(=O)CCC(=O)N1CCCC(C(=O)c2ccc3c4c(cccc24)CC3)C1 (configuration not stated)	3	-3	1	0.6	-6
6	CC1CCC(NC(=O)COC(=O)CSc2ccc(C(N)=O)cc2[N+](=O)[O-])CC1 (configuration not stated)	-5	0	-13	0.9	-2
7	Cc1ccc(S(=O)(=O)N2CCc3ccccc3C2CN2C(=O)c3ccccc3C2=O)cc1 (configuration not stated)	-5	2	-7	-0.1	9
8	COc1ccccc1-c1nnc(SCC(=O)NC2CCCCC2)o1	-1	-7	-18	-0.2	-17

#	LANA-H2A inh	ALR H2O2 inh	rRNA inh HTS	rRNA inh HTS OD600	rRNA inh HTS RFP
1	3.4	-1	35	-50	-15
2	-0.6	52	8	12	-1.3
3	2.9	-2	nt	nt	nt
4	-12	-7	-23*	-15*	2.0*
5	-3.3	-52	-10	-4	-0.5
6	-0.2	-3	2	4	0.4
7	2.9	nt	nt	nt	nt
8	-6.3	-3	4	3	-1.9

New compounds follow:
#	smiles	T cruzi repl	B2AR ag	Calb FLC	Bfl-1 A1 inh	Beta cell apopt
9	O=C(CCN1C(=O)[C@@H]2Cc3ccccc3CN2C1=O)N[C@@H](C(=O)O)c1ccccc1	1	4	0	0.2	nt
10	N/C(Cc1ccc(Cl)cc1Cl)=N\OC(=O)c1ccc(Br)o1	1	-3	-25	-0.3	-10
11	Cc1cccc(NC(=O)N(Cc2cc3cc(C)cc(C)c3[nH]c2=O)CC2COCCO2)c1 (configuration not stated)	13	6	2	0.1	1
12	CC(OC(=O)C1CC(=O)N(Cc2ccco2)C1)C(=O)Nc1ccccc1[N+](=O)[O-] (configuration not stated)	nt	-4	nt	0.0	-1
13	CCN(CC(=O)NC(=O)NC1CCCCC1)Cc1ccccc1	9	-11	-5	-0.1	2
14	O=C(c1cccs1)N1CCC(c2nc3c(nnn3Cc3ccccc3Cl)c(=O)[nH]2)CC1	4	-16	4	0.1	nt
15	N=C1SCC(=O)N1/N=C/c1ccccc1	-12	-11	-3	-1.5	1
16	Cc1cc(OCC(=O)OCC(=O)Nc2ccc(Cl)cn2)ccc1Cl	nt	6	nt	-0.5	-6

#	LANA-H2A inh	ALR H2O2 inh	rRNA inh HTS	rRNA inh HTS OD600	rRNA inh HTS RFP
9	1.5	-27	5	15	-9.1
10	1.4	nt	-22*	-1.7*	6.0*
11	0.5	-5	nt	nt	nt
12	0.6	-12	-2	0	0.6
13	2.0	-15	-5	-7	-2.2
14	0.5	-8	-1	0	-0.7
15	1.2	-6	1	4	1.8
16	-1.3	-1	1	7	1.0

Continued.
#	smiles	T cruzi repl	B2AR ag	Calb FLC	Bfl-1 A1 inh	Beta cell apopt
17	O=C(NCc1ccc(Cl)cc1)C1CCN(S(=O)(=O)c2ccccc2)CC1	5	-2	-14	-0.4	-13
18	Cc1c(C(=O)Nc2cccc(S(=O)(=O)N3CCOCC3)c2)oc2ccccc12	nt	0	nt	1.0	-9
19	Cc1cc(C)n2nc(SCc3nnc(-c4ccc(F)cc4)o3)nc2n1	-9	nt	-5	1.2	-2
20	Cc1ccc(S(=O)(=O)CCC(O)c2ccc(Cl)cc2)cc1 (configuration not stated)	-12	-7	4	-1.8	-4
21	NC(=O)NOCc1c(Cl)cccc1Cl	-3	-2	-5	0.8	1
22	O=C(CSc1nc(O)cc(=O)[nH]1)N1CCCc2ccccc21	-3	-3	-9	0.4	0
23	S=C(Nc1ccccc1)N1CCN(Cc2ccccc2)CC1	-11	1	3	-0.8	-9
24	CC(C)[C@@H](C(=O)O)N(Cc1cccc(CN([C@H](C(=O)O)C(C)C)S(C)(=O)=O)c1)S(C)(=O)=O	-10	3	3	0.0	-8

#	LANA-H2A inh	ALR H2O2 inh	rRNA inh HTS	rRNA inh HTS OD600	rRNA inh HTS RFP
17	9.0	0	3	5	-1.0
18	1.8	-7	8	12	3.4
19	0.7	-9	nt	nt	nt
20	-1.3	-2	-5	-3	2.9
21	-0.5	-27	10	7	-1.1
22	1.5	99*	nt	nt	nt
23	-1.3	-5	9	2	-1.3
24	-7.9	0	18	4	22

Compounds from the list above containing fluorine, in the order listed:
#	smiles	T cruzi repl	B2AR ag	Calb FLC	Bfl-1 A1 inh	Beta cell apopt
3	O=C(CSc1ncnc2c1cnn2-c1ccc(F)cc1)NCc1ccc2c(c1)OCO2	6	0	1	-0.3	-5
19	Cc1cc(C)n2nc(SCc3nnc(-c4ccc(F)cc4)o3)nc2n1	-9	nt	-5	1.2	-2

#	LANA-H2A inh	ALR H2O2 inh	rRNA inh HTS	rRNA inh HTS OD600	rRNA inh HTS RFP
3	2.9	-2	nt	nt	nt
19	0.7	-9	nt	nt	nt

Going on with the list:
#	smiles	T cruzi repl	B2AR ag	Calb FLC	Bfl-1 A1 inh	Beta cell apopt
25	COCCNC(=O)CN(C(=O)Cn1nnc2ccccc21)c1ccc(C)cc1	-10	-2	-1	0.6	-2
26	Cc1ccc2nc(-c3ccc(Br)cc3)cn2c1	-8	1	-10	-5.5	3
27	O=C(CSc1nnc(-c2ccc(Br)cc2)o1)Nc1cccc(C(=O)O)c1	1	0	2	-0.2	-3
28	CN(C(=O)c1ccccc1C(=O)OCC(=O)c1ccccc1)c1ccccc1	nt	-5	nt	0.8	0
29	O=C(Nc1cc(S(=O)(=O)N2CCCCCC2)ccc1OCC(F)(F)F)c1ccc(=O)[nH]c1	nt	0	nt	0.6	-3
30	O=C(c1ccccc1)c1c[nH]c(C(=O)NNc2cccc(Cl)n2)c1	-5	6	-2	0.0	0
31	Cn1c(=O)c2c(-c3ccccc3)n(Cc3ccccn3)cc2n(C)c1=O	-5	2	11	0.2	-4
32	Cc1ccc(/C=C2/C(=N)N3N=C(CC(=O)N4CCCC4)SC3=NC2=O)cc1	0	4	-8	-0.1	-1

#	LANA-H2A inh	ALR H2O2 inh	rRNA inh HTS	rRNA inh HTS OD600	rRNA inh HTS RFP
25	-1.8	-6	3	13	1.0
26	0.6	-1	-11	4	-4.7
27	-4.1	-7	-1	8	-1.1
28	30*	-1	-9	-8	-4.9
29	0.3	-1	-5	3	-0.6
30	-5.1	-4	-12	-13	0.4
31	3.3	-12	nt	nt	nt
32	-1.3	97*	5	13	-2.1

Other compounds.
#	smiles	T cruzi repl	B2AR ag	Calb FLC	Bfl-1 A1 inh	Beta cell apopt
33	CCc1nn(CC(=O)N2CCN(CC)CC2)c(=O)c2cc3sccc3n12	-1	-17	1	-2.4	-2
34	CCc1ccccc1NC(=O)COC(=O)C1C2CC3OC(=O)C1C3C2 (configuration not stated)	-14	3	4	-1.2	-7
35	CCCc1c(C(=O)Nc2ccc(F)cc2F)cnn1-c1ccccc1	nt	-3	1	-0.1	1
36	C=CCn1c(=NC(=O)c2ccc(S(=O)(=O)N3CCCC3)cc2)sc2cc(NC(C)=O)ccc21	24	1	0	-0.1	9
37	CC1(C)CC(=O)C(N=Nc2c(F)cccc2F)=C(O)C1	-9	-7	3	-0.2	-1
38	Cc1cccc(OCCC(=O)OCC(=O)Nc2c(C)nn(-c3ccccc3)c2C)c1	-4	6	-1	0.0	-10
39	COc1ccc(Cl)cc1N(CC(=O)Nc1cccc(SC)c1)S(C)(=O)=O	9	1	18	-0.5	2
40	COc1cc(N)c(Cl)cc1C(=O)OCC(=O)N(C)C1CCCCC1	nt	-8	nt	1.4	-7

#	LANA-H2A inh	ALR H2O2 inh	rRNA inh HTS	rRNA inh HTS OD600	rRNA inh HTS RFP
33	4.3	-9	9	7	2.6
34	-4.8	-1	2	8	-1.5
35	-0.8	-3	-3	-6	-2.6
36	1.5	1	10	-2	-6.1
37	-6.1	0	3	10	5.0
38	-4.4	-6	-1	-3	-1.1
39	0.6	-5	-40	-57	19
40	-5.0	nt	0	-10	1.7

Other results
#	smiles	T cruzi repl	B2AR ag	Calb FLC	Bfl-1 A1 inh	Beta cell apopt
41	Cc1nc2cc(NC(=O)NCc3ccco3)ccc2n1C	-24	2	3	-0.6	-1
42	COCc1cc(C)n(CC(=O)N2CCCC2)c(=O)c1C#N	-9	1	-18	0.9	-9
43	Cc1cc(C)c(C)c(S(=O)(=O)NCc2ccncc2)c1C	-21	-1	28	0.0	46
44	CCOC(=O)C1CCN(C(=O)COC(=O)c2nc3nc(C)cc(C)n3n2)CC1	-10	-5	15	-0.4	-7
45	CC(C)CN(C(=O)CN1CCc2ccccc21)c1c(N)n(CC(C)C)c(=O)[nH]c1=O	-5	2	18	-0.2	0
46	O=C(N/N=C/c1c(F)c(F)c(F)c(F)c1F)c1cccc(S(=O)(=O)N2CCOCC2)c1	1	0	-11	-0.9	-1
47	NC(=O)COC(=O)c1ccc(NS(=O)(=O)c2ccc3c(c2)OCCO3)cc1	3	-9	4	-0.1	-6
48	C=CCOc1ccc(/C=N/NC(=O)CN(c2cc(Cl)ccc2OC)S(=O)(=O)c2ccc(C)c([N+](=O)[O-])c2)cc1	2	-6	5	1.0	-2
49	CCNC(=O)Cn1c(=O)c2c(ncn2Cc2ccccc2)n(Cc2ccccc2)c1=O	-1	0	3	nt	nt

#	LANA-H2A inh	ALR H2O2 inh	rRNA inh HTS	rRNA inh HTS OD600	rRNA inh HTS RFP
41	-6.2	-9	nt	nt	nt
42	-1.5	nt	nt	nt	nt
43	0.2	0	1	7	0.3
44	5.1	-1	1	3	-0.6
45	-10	15	12	15	21
46	1.9	-2	3	4	4.4
47	6.7	2	-1	-7	2.6
48	-2.5	-1	19	10	-2.0
49	nt	nt	13	7	-4.3
